HCMV UL50-53 inh: inhibitors of HCMV UL50-UL53 nuclear egress complex interaction; HTRF UL50-UL53 interaction, normalized percent inhibition; inhibition, % (test concentration not listed); 190,000 compounds, 0.15% hits;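 active means both replicates at 50% or more, plus weaker picks with an unusually low signal ratio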;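 further: stock transfer was 100 nL into about 20 µL; 0% = negative control wells and 100% = wells with untagged competitor protein; inactives centre near -12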
Sa growth inh: S. aureus growth inhibition; 170,000 compounds, 0.53% hits; S. aureus RN4220 growth, OD600, 20 h, 42 °C; hits give low values; relative growth, % (test concentration not listed);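 active means growth at 42 °C up to 50% and 20 or more points under that at 30 °C, or under 10% at both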;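 further: 300 nL library stock went into each well; scaled to the means of positive and negative controls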
GIV-Gai inh: inhibitors of GIV GBA-motif binding to rat Galpha-i3. AID 1224905. P08753. Galpha-i3/FITC-GIV peptide fluorescence polarization, 90 min; hits give low values; scaled: aluminum fluoride 0%, vehicle 100%. percent of control (FP), % (test concentration not listed). 210,000 compounds, 0.42% hits;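 active means replicate mean at 85% of control or lower, very high polarization wells dropped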;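 further: wells of about 15 µL received 100 nL stock; the first replicate is given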
Target sequence (P08753 whole entry, looked up): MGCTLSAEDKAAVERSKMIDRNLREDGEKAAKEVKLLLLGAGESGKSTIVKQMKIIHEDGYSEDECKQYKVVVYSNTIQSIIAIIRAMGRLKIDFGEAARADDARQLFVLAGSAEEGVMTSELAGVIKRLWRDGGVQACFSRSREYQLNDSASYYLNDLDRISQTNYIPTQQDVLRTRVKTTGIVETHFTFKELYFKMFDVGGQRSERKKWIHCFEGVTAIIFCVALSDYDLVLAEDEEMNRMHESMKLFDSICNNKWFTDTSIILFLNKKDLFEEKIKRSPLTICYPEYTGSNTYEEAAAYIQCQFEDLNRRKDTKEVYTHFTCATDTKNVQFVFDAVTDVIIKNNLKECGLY
Sa growth inh second temp: second read-out of Sa growth inh, no call of its own (marks repeat the call); relative growth, %; measured here: growth at 30 °C;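 optical density after 20 h as mean of two plates; 100% = untreated growth and lower means inhibition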
Numbers without * were called inactive; x = no result given; & = joins results of further samples. Outcome played no part in choosing rows; any-hit rate near 0.83%.

cpd	structure	Sa growth inh second temp	Sa growth inh	HCMV UL50-53 inh	GIV-Gai inh
1	Cn1cc(Cl)c(/C=C(\C#N)S(=O)(=O)C(C)(C)C)n1	95	116	-12	106
2	C=CCSc1nc(C)c(C(=O)Nc2ccccc2)c(-c2ccc(OC)cc2)c1C#N	x	x	4	104
3	COc1ccc(-c2csc(Nc3cccnc3)n2)cc1	97	122	-18	102
4	CC1CCC(NC(=O)C2CCCN2S(=O)(=O)c2ccc3c(c2)NC(=O)CO3)CC1 (stereo not given)	x	x	-15	105
5	O=C(Oc1ccc(S(=O)(=O)c2ccc(OC(=O)c3cccs3)cc2)cc1)c1cccs1	88	119	x	98
6	Cc1cccc(NS(=O)(=O)c2ccc3c(c2)n(C)c(=O)n3C)c1C	89	123	x	101
7	CC(NC(=O)c1cc(-c2cccnc2)nc2ccccc12)c1ccc2c(c1)OCCO2 (stereo not given)	x	x	-52	103
8	COc1ccc(CCCc2nnc(SCC(=O)Nc3cc(F)ccc3C)o2)cc1	91	113	-10	105
9	O=C1CN(C(=O)COc2ccc(Cl)cc2)C2(CCCCC2)C(=O)N1	94	84	-16	x
10	C=CCn1c(CNc2ccc(C)cc2)nnc1SCC(=O)c1ccccc1	56	100	x	100
11	CCOc1ccccc1NC(=O)CSc1nc(=O)[nH]c2c1CCCC2	87	109	x	98
12	Cc1ccc(-n2ncc3c(N4CCC(C)CC4)ncnc32)cc1C	85	110	x	103

Later entries
cpd	structure	Sa growth inh second temp	Sa growth inh	HCMV UL50-53 inh	GIV-Gai inh
13	C=C(C)C1CCC2(C)OC(=O)N(Cc3ccccc3)C12C (stereo not given)	88	105	-2	x
14	CN(c1ccc(O)cc1)S(=O)(=O)c1ccccc1	105	108	5	x
15	CCS(=O)(=O)N1CCc2cc(C(=O)CSc3nnc(C4CCCCC4)o3)ccc21	91	83	-21	x
16	O=C(CNc1ccncc1)c1c[nH]c2ccccc12	97	87	-2	x
17	CC(=O)NCCc1ccc(S(=O)(=O)Nc2ccc3ncn(C)c(=O)c3c2)cc1	88	70	1	97
18	CCCCn1c(=O)c2sccc2n2c(CCC(=O)N3CCN(C4CCCCC4)CC3)nnc12	x	x	-13	101
19	Cc1cc(C(=O)NCc2cccs2)cs1	104	109	-1	105
20	COc1cc(OC)c(NC(=O)N2CCN(c3ccc(=O)n(-c4ccccc4)n3)CC2)cc1Cl	x	x	-55	107
21	O=C(Cc1ccc(Cl)cc1)Nc1ccc(-c2nnc3n2CCCCC3)cc1	91	81	x	99
22	CCSc1ccc(C(=O)NCC(=O)O)cc1	84	104	-6	105
23	O=c1sc2ccccc2n1Cc1nnc(SCc2ccccn2)n1-c1ccccc1	90	119	4	99
24	CCN(CC)CCN1C(=O)c2ccccc2NC1c1ccc2c(c1)OCO2 (stereo not given)	54	82	x	100

Next part:
cpd	structure	Sa growth inh second temp	Sa growth inh	HCMV UL50-53 inh	GIV-Gai inh
25	CCOC(=O)c1cc2ccsc2n1CC(=O)Nc1cc(Cl)ccc1OC	x	x	-20	103
26	CCOC(=O)c1cc2c(=O)n3ccccc3nc2n(CCCOC)c1=NC(=O)c1c(-c2ccccc2Cl)noc1C	88	110	-7	105
27	COC(=O)c1cccc(OCC(O)CNCCC2=CCCCC2)c1 (stereo not given)	90	94	-7	x
28	O=C(Nc1ccc2c(c1)OCCO2)c1ccc(Nc2cc(-c3ccc(F)cc3)ncn2)cc1	x	x	-24	103
29	N#CC1=C(N)OC2=C(C(=O)CCC2)C1c1c(F)cccc1Cl (stereo not given)	81	112	-29	105
30	Cc1oc(-c2cccc(Cl)c2)nc1CN1CCCC(C(=O)NCc2ccc(F)cc2)C1 (stereo not given)	92	114	-26	103
31	CN(C(=O)c1cc2nc(-c3ccco3)cc(C(F)(F)F)n2n1)C12CC3CC(CC(C3)C1)C2	93	68	3	103
32	CSc1ccccc1NC(=O)CCS(=O)(=O)c1nc(-c2cccs2)cc(C(F)(F)F)n1	66	85	-17	105
33	O/N=C/c1ccnc(SCc2ccccc2)n1	66	96	1	102
34	CCOc1cc(/C=C/C(=O)O)ccc1OCC(C)C	87	101	-26	x
35	CN(C(=O)Nc1ccccc1)C1CCS(=O)(=O)C1 (stereo not given)	76	110	-5	106
36	CCOC(=O)C1CCN(C(=O)c2cn(-c3ccc(OC)cc3)c(=O)c3ccccc23)CC1	x	x	-16	109

Entries of single compounds from above. Values in the order: Sa growth inh second temp | Sa growth inh | HCMV UL50-53 inh | GIV-Gai inh
Shown for CCOC(=O)c1cc2ccsc2n1CC(=O)Nc1cc(Cl)ccc1OC → x | x | -20 | 103
Shown for Cn1cc(Cl)c(/C=C(\C#N)S(=O)(=O)C(C)(C)C)n1 → 95 | 116 | -12 | 106
Shown for CC(NC(=O)c1cc(-c2cccnc2)nc2ccccc12)c1ccc2c(c1)OCCO2 (stereo not given) → x | x | -52 | 103
Shown for C=CCSc1nc(C)c(C(=O)Nc2ccccc2)c(-c2ccc(OC)cc2)c1C#N → x | x | 4 | 104

Continuation.
cpd	structure	Sa growth inh second temp	Sa growth inh	HCMV UL50-53 inh	GIV-Gai inh
37	CC(=O)NC(=O)c1cc2cc([N+](=O)[O-])ccc2oc1=Nc1ccc(Cl)cc1Cl	x	x	-26	101
38	COCc1nnc(NC(=O)c2ccc3c(c2)OCO3)s1	79	93	-16	102
39	O=c1oc2cc(OCc3ccc(Cl)cc3)ccc2c2c1CCC2	91	73	x	103
40	CCN(CC)S(=O)(=O)c1ccc(C(=O)NC2CCCCC2)cc1	88	111	-10	x
41	Oc1cccc(N=Cc2cc(Br)ccc2O)c1	55*	32*	-2	x
42	CCCn1c(SCC(=O)N(CC)C2=CCCCC2)n[nH]c1=O	90	111	-4	x
43	CC1c2cccn2-c2sc3c(c2CN1C(=O)Nc1ccc(Br)cc1)CCN(C)C3 (stereo not given)	x	x	-27	108
44	c1ccc2c(c1)NCC1CCCN21 (stereo not given)	67	78	-35	181
45	CCn1c(SCC(=O)Nc2cc(C)on2)nc2sc(C)c(C)c2c1=O	94	76	-24	x
46	CCCCc1ccc(/C(C)=C/C(=O)O)cc1	91	102	-9	97
47	Cc1ccc(S(=O)(=O)N(C)CCc2noc(C3CCCCC3)n2)c2nsnc12	x	x	-63	107
48	Cc1nn(-c2ccc(F)cc2)c(-n2cccc2)c1C(=O)NCCCN1CCN(c2cccc(Cl)c2)CC1	27	84	x	104

16 compounds out of the list, arranged by molar mass, highest first:
cpd	structure	Sa growth inh second temp	Sa growth inh	HCMV UL50-53 inh	GIV-Gai inh
48	Cc1nn(-c2ccc(F)cc2)c(-n2cccc2)c1C(=O)NCCCN1CCN(c2cccc(Cl)c2)CC1	27	84	x	104
31	CN(C(=O)c1cc2nc(-c3ccco3)cc(C(F)(F)F)n2n1)C12CC3CC(CC(C3)C1)C2	93	68	3	103
36	CCOC(=O)C1CCN(C(=O)c2cn(-c3ccc(OC)cc3)c(=O)c3ccccc23)CC1	x	x	-16	109
47	Cc1ccc(S(=O)(=O)N(C)CCc2noc(C3CCCCC3)n2)c2nsnc12	x	x	-63	107
37	CC(=O)NC(=O)c1cc2cc([N+](=O)[O-])ccc2oc1=Nc1ccc(Cl)cc1Cl	x	x	-26	101
45	CCn1c(SCC(=O)Nc2cc(C)on2)nc2sc(C)c(C)c2c1=O	94	76	-24	x
40	CCN(CC)S(=O)(=O)c1ccc(C(=O)NC2CCCCC2)cc1	88	111	-10	x
39	O=c1oc2cc(OCc3ccc(Cl)cc3)ccc2c2c1CCC2	91	73	x	103
42	CCCn1c(SCC(=O)N(CC)C2=CCCCC2)n[nH]c1=O	90	111	-4	x
38	COCc1nnc(NC(=O)c2ccc3c(c2)OCO3)s1	79	93	-16	102
41	Oc1cccc(N=Cc2cc(Br)ccc2O)c1	55*	32*	-2	x
35	CN(C(=O)Nc1ccccc1)C1CCS(=O)(=O)C1 (stereo not given)	76	110	-5	106
34	CCOc1cc(/C=C/C(=O)O)ccc1OCC(C)C	87	101	-26	x
33	O/N=C/c1ccnc(SCc2ccccc2)n1	66	96	1	102
46	CCCCc1ccc(/C(C)=C/C(=O)O)cc1	91	102	-9	97
44	c1ccc2c(c1)NCC1CCCN21 (stereo not given)	67	78	-35	181

The listing continues:
cpd	structure	Sa growth inh second temp	Sa growth inh	HCMV UL50-53 inh	GIV-Gai inh
49	O=C(NCCc1ccccc1)c1ccc(N2CCCCS2(=O)=O)cc1	89	86	-26	99
50	NNC(=O)c1nnn(-c2nonc2N)c1CN1CCCCC1	81	96	-6	x
51	O=C1CSC(c2ccc(OC(F)F)cc2)N1c1ccc(Br)cc1 (stereo not given)	x	x	-10	101
52	CCS(=O)(=O)N1CCc2cc(C(=O)Nc3cccc(Cl)c3C)ccc21	96	106	-2	99
53	CCCS(=O)(=O)c1ncc(Cl)c(C(=O)Nc2sc3c(c2C(=O)OCC)CCCC3)n1	x	x	7	76*
54	CN(C)C(CNC(=O)c1cc(-c2ccccc2)on1)c1ccccc1 (stereo not given)	x	x	-21	100
55	COC(=O)Cc1cc(=O)n2c(nc3ccccc32)[nH]1	97	100	-11&-21	107&99
56	Cc1ccc(S(=O)(=O)N=C2C=CC(=NS(=O)(=O)N(C)C)C=C2)cc1	80	83	-26	102
